# HPGD inh = HPGD (human) dehydrogenase inhibition. Potency, µM, inactives show at the top dose activity change, negative = inhibition, actives largely listed as inhibitors. 4.3% of 150,000 active. AID 894. purified HPGD, NADH fluorescence kinetic, PGE2 substrate. P15428; active = well fitted inhibition curve with a large enough effect (not every such curve was filed as active); inconclusive = small, poorly fitted or top-dose-only effect, or another doubt; inactive = no such curve, though single readings can be large or run the other way;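 further: top concentration of the series not given in the record; plate controls included wells without enzyme; inactives centre near -10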
# Target sequence (P15428 whole entry, looked up): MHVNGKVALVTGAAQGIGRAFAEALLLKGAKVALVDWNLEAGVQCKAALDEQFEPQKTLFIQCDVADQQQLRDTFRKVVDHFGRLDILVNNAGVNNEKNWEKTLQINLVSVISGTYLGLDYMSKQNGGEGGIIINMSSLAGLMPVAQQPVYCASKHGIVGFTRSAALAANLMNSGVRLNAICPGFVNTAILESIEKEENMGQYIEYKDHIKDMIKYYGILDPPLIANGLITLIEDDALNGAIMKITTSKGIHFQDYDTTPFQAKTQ
#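 NADH formation kinetics: reaction with 30 uM PGE2 and 1 mM NAD+ (final), 20 nM enzyme, Tris-HCl pH 8 with Tween 20, after 15 min compound preincubation at room temperature. Fluorescence change, last versus first of five reads.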
# Numbers without * were called inactive; ? = inconclusive. On the % scale 0 is the no-effect control and ±100 the full control effect; potency means the concentration at half of the fitted maximal effect.
SMILES,HPGD inh
CC1CCCN(c2ccc(C(=O)OCn3nnc4ccccc4c3=O)cc2[N+](=O)[O-])C1 (stereo not drawn),15.8µM*
Cc1ccc(Cn2cccc(NC(=O)NCc3ccccc3)c2=O)cc1,?
CCCc1nn(C)c(C(=O)Nc2ccc(C)c(C)c2)c1Cl,-7.5%
CCOC(=O)C1CCN(S(=O)(=O)c2ccc(Br)c(OCC)c2)CC1,-12.6%
CCSc1nc(C)c(CC)c(C)c1C(N)=O,-10.2%
COc1ccc(NC(=S)c2ccccc2)cc1,-15.1%
Oc1c(Cl)cc(Cl)c2c1NCCC2,-10.0%
COc1cc(NC(=O)Cn2nc(Cc3cccnc3)c3ccccc3c2=O)cc(OC)c1OC,-6.5%
CC1(C)Cn2c(nnc2-c2ccccc2)S1,15.8µM*
CCn1c(SCC(=O)Nc2nc3ccc(OC)cc3s2)nc2c1c(=O)n(C)c(=O)n2C,-21.3%
CC1=C(C(=O)OC(C)C)C(c2ccc(N(C)C)cc2)C2=C(CC(C)(C)CC2=O)N1 (stereo not drawn),-8.8%
O=C(N/N=C/c1ccc(OCC(=O)N2CCCCC2)cc1)c1ccccc1O,22.4µM*
Brc1ccccc1OCCCN1CCOCC1,-12.7%
CCCCNC(=O)CCC(=O)NNc1nc2ccccc2c2nc(-c3ccccc3)nn12,-7.0%
Cc1ccc(NC(=O)CCC(=O)NNC(=O)COc2cccc3ccccc23)c(C)c1,-7.8%
CNCc1ccc(OCc2ccccc2)c(OC)c1,2.5%
C/C(=N/NC(=O)c1cccs1)c1ccco1,-21.1%
COCCn1cc(C(=O)c2ccccc2OCC(=O)Nc2cc(C)on2)cc(C#N)c1=O,-17.0%
CCC(=O)NC1(C(F)(F)F)C(=O)Nc2c1c(=O)n(C)c(=O)n2C (stereo not drawn),-3.0%
N#Cc1nc(COc2ccccc2)oc1N1CCCC1,-21.9%
Cc1noc(C)c1S(=O)(=O)N1CCC(C(=O)NC2CCCc3ccccc32)CC1 (stereo not drawn),-2.7%
CC(/C=N/n1c(C2CCCCC2)n[nH]c1=S)=C\c1ccccc1,?
CC(C)(C)C(=O)Nc1nc(=S)ss1,31.6µM*
CCCS(=O)(=O)N1CCN(C(=O)c2cccnc2)CC1,-13.2%
O=C(NC(=S)Nc1ccc(CN2CCOCC2)cc1)c1ccccc1[N+](=O)[O-],-16.9%
N#Cc1c(-c2ccccc2)nc(SCc2nc(N)nc(N3CCCCC3)n2)[nH]c1=O,?
CCOc1cc(-c2cc(-c3ccc(OC)cc3)nc(N)c2C#N)ccc1O,?
O=c1cnn(-c2ccc(Cl)cc2Cl)c(-c2ccccc2)c1,-8.2%
O=[N+]([O-])c1ccc(NC(=S)NCCc2ccccc2)cc1,-10.0%
CCC(=O)Nn1cnc2c(c1=O)C1(CCCCC1)Cc1ccccc1-2,-1.0%
Cc1ccccc1OCC(=O)NNC(=O)C1CCCCC1C(=O)O (stereo not drawn),-7.2%
Cc1ccc(CN2C(=O)C3CCCN3c3ccc(C#N)cc32)cc1 (stereo not drawn),?
CCOC(=O)C1=C(C)NC2=C(C(=O)C(C(=O)OCC)C(c3ccccc3OC)C2)C1c1ccccn1 (stereo not drawn),?
O=c1nc(N2CCCC2)nc(Nc2ccccc2)[nH]1,-15.8%
CCCN1C(=O)/C(=C\C=C2/C=CN(CC)c3ccccc32)SC1=S,-15.1%
CCN(C(=O)CSc1nnc(Nc2ccccc2C)s1)C1CCS(=O)(=O)C1 (stereo not drawn),-7.2%
COc1ccc(-n2nnc3c(SCC(=O)c4ccccc4)ncnc32)cc1,?
O=C(Nc1cccc(Cl)c1)Nc1ccccc1NS(=O)(=O)c1cccs1,-29.1%
O=c1c(-c2nc3ccccc3s2)cccn1Cc1ccccc1,?
O=C(Nc1ccc2nc3n(c(=O)c2c1)CCCC3)c1cccc([N+](=O)[O-])c1,-7.6%

# Printed as active in HPGD inh, among the entries above:
SMILES,HPGD inh
CC1CCCN(c2ccc(C(=O)OCn3nnc4ccccc4c3=O)cc2[N+](=O)[O-])C1 (stereo not drawn),15.8µM*
CC1(C)Cn2c(nnc2-c2ccccc2)S1,15.8µM*
O=C(N/N=C/c1ccc(OCC(=O)N2CCCCC2)cc1)c1ccccc1O,22.4µM*
CC(C)(C)C(=O)Nc1nc(=S)ss1,31.6µM*

# (list continues)
SMILES,HPGD inh
CCCC1(C(=O)OCC)NC(c2ccc(OC)cc2OC)C2C(=O)N(c3ccccc3)C(=O)C21 (stereo not drawn),-12.1%
COc1ccc(/C=N\NC(=O)C2=NNC(=O)C2C)cc1 (stereo not drawn),-13.3%
OCC1OC(n2nc3ccccc3n2)C(O)C(O)C1O (stereo not drawn),-3.1%
CCc1cc2ccc(C)cc2nc1SCC(=O)c1ccc(NC(C)=O)cc1,8.91µM*
Cc1cccc2c1nc(-c1ccccc1)n1cnnc21,?
CCCC(=O)N1CCN(c2ccc(NC(=O)c3ccc(OCC)c([N+](=O)[O-])c3)cc2)CC1,-15.3%
CCOC(=O)c1c(NC(=O)CSC(=S)N2CCOCC2)sc(C)c1C,-8.8%
O=C(Nc1ccc(-c2nc3ccccc3o2)cc1)c1ccc(N2C(=O)C3C4C=CC(C4)C3C2=O)cc1 (stereo not drawn),?
COc1ccc(/C=N/OC(=O)Nc2ccccc2)cc1[N+](=O)[O-],-4.2%
Cc1cc(-n2c(C)cc(C(=O)COc3ccc4ccc(=O)oc4c3)c2C)no1,?
C/C(N)=C(/C#N)C(=O)CN1CCCCC1,3.5%
Cc1ccc(CS(=O)(=O)CCC(=O)NC2CC2)cc1,4.8%
O=C1Nc2ccccc2C(O)(C(=O)NCc2ccc3c(c2)OCO3)N1c1ccc(Cl)c(Cl)c1 (stereo not drawn),-18.2%
O=C(CCCOc1ccccc1)N1CCN(C(=O)c2ccco2)CC1,-9.4%
COc1ccc(S(=O)(=O)N2CCC(O)(c3ccc(Cl)cc3)CC2)cc1,-9.7%
O=C(Cn1nc(-c2cccc([N+](=O)[O-])c2)c2ccccc2c1=O)Nc1cccnc1,-4.1%
CC(=O)N1CC=CC1(CC(C)C)C(=O)NCC1CC1 (stereo not drawn),-3.7%
Cc1ccccc1C(=O)OC1OC(=O)C(Cl)=C1N1CCOCC1 (stereo not drawn),-10.9%
CCc1cc(C(=O)OC)c(NC(=O)CCCC(=O)O)s1,-23.1%
O=C1Nc2ccccc2C12OCCO2,-15.7%

# Pulled one by one from above, 6 records:
SMILES,HPGD inh
COc1ccc(-n2nnc3c(SCC(=O)c4ccccc4)ncnc32)cc1,?
O=c1nc(N2CCCC2)nc(Nc2ccccc2)[nH]1,-15.8%
Cc1ccccc1C(=O)OC1OC(=O)C(Cl)=C1N1CCOCC1 (stereo not drawn),-10.9%
Cc1ccc(NC(=O)CCC(=O)NNC(=O)COc2cccc3ccccc23)c(C)c1,-7.8%
O=C(Nc1cccc(Cl)c1)Nc1ccccc1NS(=O)(=O)c1cccs1,-29.1%
CC(/C=N/n1c(C2CCCCC2)n[nH]c1=S)=C\c1ccccc1,?

# (more compounds)
SMILES,HPGD inh
C/C(=N\O)c1ccc(N2C(=O)C3CC=C(Cl)CC3C2=O)cc1 (stereo not drawn),-5.3%
CCCCn1c(-c2ccc(Cl)cc2)nc2c(=O)n(C)c(=O)[nH]c21,?
CCn1c(SCC(=O)C(C)(C)C)nnc1-c1ccccn1,-14.9%
Cn1cccc1Cc1nnc(SCC(=O)N2CCc3ccccc32)n1CCc1ccccc1,-10.7%
COc1ccc(NS(=O)(=O)c2ccc(O)c(NC(=O)c3ccc(S(=O)(=O)N4CCCCCC4)cc3)c2)cc1,-6.2%
Cn1c(=O)oc2cc(S(=O)(=O)N3CCCC(C(=O)N4CC=C(c5ccccc5)CC4)C3)ccc21 (stereo not drawn),14.1µM*
COc1ccc(C)cc1NC(=O)c1cc2ccccc2cc1OCC(=O)NCc1ccco1,?
CCNc1nc(-c2cc3ccccc3o2)cs1,-4.6%
COc1ccc(-c2noc(-c3ccccc3C(=O)Nc3cccnc3)n2)cc1OC,-29.3%
COCC(=O)N/N=C(\C)CC(=O)Nc1ccccc1C(N)=O,-2.9%
CCOC(=O)c1nnn(-c2ccccc2)c1C,-9.2%
COC(=O)C1=C(C)NC(C)=C(C(=O)OC)C1c1ccc(-c2cc(Cl)ccc2Cl)o1,-25.4%
Cc1cc(C(=O)Nc2nnc(-c3ccccc3)s2)no1,-29.1%
N#CC1=C(N)Oc2n[nH]c(-c3ccccn3)c2C1c1c(F)cccc1Cl (stereo not drawn),-8.5%
C/C(=N\OCC(=O)Nc1cc(C)cc(C)c1)c1ccc2c(c1)OCCO2,-1.9%
CCCC(=O)Nc1cccc(-c2nc3ccccc3o2)c1,-23.4%
CCCSc1nc2c(c(=O)n(C)c(=O)n2C)n1Cc1ccc(C)cc1,-8.0%
Cc1cccc(NC(=O)C2CC(O)CN2C(=O)OCc2ccccc2)c1 (stereo not drawn),-9.9%
CC(=O)C1=C(O)C(=O)N(c2cc(C(C)(C)C)on2)C1c1ccc(C(C)C)cc1 (stereo not drawn),-12.0%
COC(=O)Nc1nnc(Cc2ccc(Cl)cc2)s1,-2.4%
Cc1cc(N2CCN(c3ccccc3)CC2)nc(N)n1,-10.6%
COc1cccc(CNS(=O)(=O)c2cn(C)cn2)c1,-7.0%
Cc1ccc(-n2c(SCC(=O)Nc3ccc4c5c(cccc35)CC4)nc(O)cc2=O)cc1,-3.9%
CCOc1cc(N2CCOCC2)c(OCC)cc1NC(=O)Cc1cccc2ccccc12,-10.8%
O=C(COC(=O)c1ccc(S(=O)(=O)NCc2ccco2)cc1)NC1CCCCC1,-6.8%
Cc1ccc(C2(O)CN(c3ccccc3C)C3=[N+]2CCS3)cc1 (stereo not drawn),-1.3%
COc1cc(S(=O)(=O)N2CCCCC2)ccc1NC(=O)c1ccccc1Cl,-15.9%
NC(N)=N/N=C\c1ccc(O)c(C(=O)O)c1,?
CC(=C/c1ccccc1)/C=C1/SC(N2CCOCC2)=NC1=O,-23.3%
COc1ccccc1OCC(=O)Nc1ccccc1C(=O)NCc1ccco1,-5.1%
Cc1ccc(C2C3=C(CCCC3=O)Nc3[nH]c(=S)[nH]c(=O)c32)cc1 (stereo not drawn),10µM*
O=C(c1ccccc1NS(=O)(=O)c1cccc(C(F)(F)F)c1)N1CCc2ccccc21,-9.4%
COc1ccc(C(=O)CSc2nncn2C)cc1,-17.9%
O=C(CN1C(=O)NC2(CCc3ccccc32)C1=O)Nc1cc(C(F)(F)F)ccc1N1CCOCC1 (stereo not drawn),2.9%
CCOC(=O)COc1ccc2c(c1)c(C(=O)OCC)c(C)n2CC,-8.5%
O=C(Nc1cnccn1)c1cccnc1,0.6%
CCNC(=O)C(=O)NCCc1ccc(Cl)cc1,-5.5%
OB(O)c1cc2ccccc2o1,-12.0%
CC1(C)S[C@@H]2[C@H](C(=O)O)N=C(Cc3ccccc3)N2[C@H]1C(=O)O,-4.2%
O=C(CCn1c(=O)sc2ccccc21)NCc1ccco1,-3.1%
CCOCC(=O)Nc1ccc(-c2cn3cccnc3n2)cc1,?
O=[N+]([O-])c1ccccc1/C=N/n1c(COc2ccccc2)n[nH]c1=S,7.08µM*
COc1ccc(N(CC(=O)NCc2cccs2)S(=O)(=O)c2cccnc2)cc1,-8.4%
CCCCOC(=O)Cn1c(=O)c2c(nc3n2CCCCN3c2ccc(C)cc2)n(C)c1=O,-15.2%
COc1ccc(CN2C(=O)CN=C2Nc2cc(C)ccc2C)cc1,-2.9%
CC(=O)Nc1ccc(C(=O)OC2CCOC2=O)cc1 (stereo not drawn),-12.0%
CS(=O)(=O)N(CCc1ccccc1)CC(N)=O,-0.2%
COc1ccccc1C1NC(=O)NC(C)=C1C(=O)OC1CCCCC1 (stereo not drawn),-7.7%
CCc1c(C)sc(NC(=O)OC)c1C(=O)N1CCCCC1,-10.2%
COc1cc(NC(=O)Cc2ccc([N+](=O)[O-])cc2)c(C(=O)O)cc1OC,-10.0%

# Later entries
SMILES,HPGD inh
CCOC(=O)c1c(CN2CCCCC2C)oc2ccc(OC)cc12 (stereo not drawn),-16.1%
Cc1ccnc(N2C(=O)OC(C)(C)C2(C)O)c1 (stereo not drawn),2.9%
C=CCn1c(=O)c2c3c(sc2n2c(Nc4ccc(OC)cc4)nnc12)CCCC3,3.6%
Cc1ccc(C(=O)NNC(=S)NC(=O)c2ccc(Cl)cc2)cc1,-16.4%
CC#CCN1c2ccccc2[C@]23C[C@@H](C(=O)OC)N(C(=O)c4ccc(Br)cc4)C2=NC(C(=O)OC)=C(C(=O)OC)[C@H]13,-9.0%
Cc1ccc(C(=O)N/N=C\c2ccc(OC(=O)c3cccs3)cc2)cn1,-4.2%
Cc1c(OCC(=O)OC(C)C)ccc2c3c(c(=O)oc12)CCC3,?
O=C(COc1c(Cl)cc(Cl)cc1Cl)c1ccc(Cl)cc1,-14.5%
COc1ccc2cc(C(=O)CCC(=O)O)ccc2c1,?
COC(=O)c1cc(NC(=O)Cc2ccc(OC)c(OC)c2)cc(C(=O)OC)c1,-11.8%
CCOC(=O)c1ccccc1NC(=O)c1ccc(N(C)S(C)(=O)=O)cc1,-1.2%
COc1ccc(OC)c(NC(=O)c2ccc(S(=O)(=O)N3CCN(C)CC3)cc2)c1,-11.5%
CC1Oc2ccccc2N(CC(=O)Nc2ccc3c(c2)OCCO3)C1=O (stereo not drawn),0.2%
CCOc1ccc(Br)cc1C1C(C(=O)OC)=C(N)Oc2cc(N(C)C)ccc21 (stereo not drawn),-14.1%
Cc1ccc(S(=O)(=O)NNC(=O)C(O)(c2ccccc2)c2ccccc2)cc1,3.7%
CCN(CC)C(=O)N1CCN(C(=O)c2ccc(C)cn2)CC1,-10.3%
O=C(N/N=C/c1cc(Br)ccc1O)Nc1ccccc1,-6.5%
CSc1nnc(C)c(=O)n1COC(=O)COc1ccccc1,-12.6%
COc1ccc(-n2c(Cc3ccccc3)nnc2SCC(=O)N2CCCc3ccccc32)cc1,-17.2%
Cc1sc2ncn(CC(=O)NCCN3CCOCC3)c(=O)c2c1S(=O)(=O)N1CCC(C)CC1,-6.0%

# These rows are one share of the data; count on the stated rates, not on these rows.
